NS1 function inh – blocks influenza NS1 protein function; S. cerevisiae slowed by influenza A NS1, growth recovery by OD600; Potency, µM (highest dose often 46.1 µM), for inactives: top-dose activity, positive = more growth; 0.4% of 270,000 active; further: actives are rising curves; nearly all actives have a fitted effect of over 50% in size
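Growth recovery, yeast-based: influenza A NS1 expressed in S. cerevisiae causes slow growth, and suppressors are detected by OD600. The parent strain without NS1 is used as positive control.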
LASV entry inh – inhibitors of Lassa virus binding or cell entry | Lassa virus pseudotype entry inhibition, cell reporter; control for the full effect not named in the record | Potency, µM (series often up to 37.9 µM), for inactives: top-dose activity change, negative = inhibition, usual class: inhibitors | 1.2% of 300,000 active; active means well fitted inhibition curve with a large enough effect; inconclusive means small, poorly fitted or top-dose-only effect, or effect the other way; inactive means flat fitted curve, though single readings scatter; tested in HEK293 cells; further: on the % scale 0 is the no-effect control and ±100 the full control effect; nearly all actives have a fitted effect of over 50% in size; luciferase read-out
2A StopGo – lowers the luciferase signal of an FMDV 2A StopGo reporter; human cells with a luciferase reporter of 2A StopGo recoding; control for the full effect not named in the record; 1.2% of 410,000 active; Potency, µM (series often up to 57.9 µM), without a hit: at the highest dose signal change, negative = less light; active = well fitted falling curve with a large enough effect; inconclusive = small, poorly fitted or top-dose-only effect; inactive = no such curve, though single readings can be large or run the other way; tested in HEK293T cells; further: on the % scale 0 is the no-effect control and ±100 the full control effect; nearly all actives have a fitted effect of over 45% in size; luciferase light after 4 h
SARS PLpro yeast – SARS-CoV PLP inhibition in yeast; S. cerevisiae expressing SARS-CoV PLpro, growth rescue; control for the full effect not named in the record; Potency, µM (doses to about 32.9 µM), without a hit: at the top dose activity, positive = growth rescue; 0.19% of 330,000 active; further: 0% is about no effect; nearly all actives have a fitted effect of over 55% in size; growth read by luminescence after 48 h
RE007 growth inh – less growth of the S. pombe RE007 Vpr strain; 0.21% of 360,000 active; Potency, µM (highest dose often 92.2 µM), inactives show at the highest dose activity change, negative = less growth; S. pombe RE007 Vpr strain, BacTiter-Glo ATP luminescence, 24 h; control for the full effect not named in the record; active = well fitted falling curve with a large enough effect; inconclusive = small, poorly fitted or top-dose-only effect; inactive = no such curve, though single readings can be large or run the other way;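 further: on the % scale 0 is the no-effect control and ±100 the full control effect; nearly all actives have a fitted effect of over 50% in size; the assay follows cell death caused by Vpr and the record does not say whether a fall means rescue or toxicity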
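Fission yeast strain RE007, carrying one chromosomally integrated HIV-1 vpr copy, was seeded at OD 0.01 in PMG+AL medium with 23 nL pinned compound. After 24 h at 30 °C and 99% humidity, viability was read by BacTiter-Glo luminescence.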
Marburg entry inh – Marburg virus entry inhibition. Potency, µM (titrated, usually from 37.8 µM), for the others: at the top dose activity change, negative = inhibition, hits mostly inhibitors. 1.8% of 300,000 active. AID 540276. Marburg virus pseudotyped entry inhibition, cell reporter; control for the full effect not named in the record; about a third of the inactives were read at about 46 µM; active = well fitted inhibition curve with a large enough effect; inconclusive = small, poorly fitted or top-dose-only effect, or effect the other way; inactive = flat fitted curve, though single readings scatter; tested in HEK293 cells; about a fifth of its hits are not listed in these tables; further: on the % scale 0 is the no-effect control and ±100 the full control effect; luciferase read-out
Cruzain inh noDet – cruzain (T. cruzi) inhibition without detergent. P25779. purified cruzain, Z-FR-AMC fluorescence, no detergent. Potency, µM, for the others: max response, negative = inhibition, most hits filed as inhibitors. 2.3% of 200,000 active. AID 1476; active means well fitted curve in the direction sought with a large enough effect; inconclusive means small, poorly fitted or top-dose-only effect, or another doubt; inactive means no such curve, though single readings can be large; an effect the other way counts as inactive or inconclusive;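 further: plate controls were enzyme without inhibitor for no effect and buffer without enzyme for full effect; nearly all actives have a fitted effect of over 40% in size; top concentration of the series not given in the record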
Target sequence (P25779 123-467 limits assumed): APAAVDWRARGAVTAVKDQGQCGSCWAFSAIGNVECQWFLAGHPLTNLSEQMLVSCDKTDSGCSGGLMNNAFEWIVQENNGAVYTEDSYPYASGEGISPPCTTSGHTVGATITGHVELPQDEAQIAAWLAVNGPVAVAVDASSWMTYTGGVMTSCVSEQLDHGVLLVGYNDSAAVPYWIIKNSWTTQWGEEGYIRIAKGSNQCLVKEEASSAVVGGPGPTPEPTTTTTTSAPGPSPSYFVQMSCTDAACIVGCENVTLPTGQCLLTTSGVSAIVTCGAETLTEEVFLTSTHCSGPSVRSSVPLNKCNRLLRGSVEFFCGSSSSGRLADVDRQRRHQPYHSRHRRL
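Purified cruzain at 1.5 nM, pre-incubated 15 min with compound at room temperature in 100 mM sodium acetate pH 5.5, 5 mM DTT, 0.00005% Triton X-100. Reaction started with 2 uM Z-FR-AMC; AMC fluorescence increase over 60 s gives rate.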
Cruzain Triton – cruzain (T. cruzi) inhibition with detergent. Potency, µM, for the others: max response, negative = inhibition, most hits filed as inhibitors. 0.43% of 200,000 active. AID 1478. purified cruzain, Z-FR-AMC fluorescence, 0.01% Triton; active means well fitted curve in the direction sought with a large enough effect; inconclusive means small, poorly fitted or top-dose-only effect, or another doubt; inactive means no such curve, though single readings can be large; an effect the other way counts as inactive or inconclusive;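 further: plate controls were neutral wells for no effect and buffer without enzyme for full effect; nearly all actives have a fitted effect of over 40% in size; top concentration of the series not given in the record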
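Detergent-containing run (0.01% Triton X-100) in acetate buffer pH 5.5 with 5 mM DTT: enzyme at 1.5 nM final, 15 min compound preincubation at room temperature, then 2 uM Z-FR-AMC substrate. Activity taken as 60 s fluorescence increase at 360/450 nm.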
* hit, by the source's call; ? = inconclusive; · = not tested or not shown; & = joins results of further samples; [ ] = remark or other dose. Unless noted, the call rests on the fitted dose curve; in most records, active means well fitted rising curve with a large enough effect; inconclusive means small, poorly fitted or top-dose-only effect; inactive means no such curve, though single readings can be large or run the other way. Potency means the concentration at half of the fitted maximal effect.

molecule	NS1 function inh	LASV entry inh	2A StopGo	SARS PLpro yeast	RE007 growth inh	Marburg entry inh	Cruzain inh noDet	Cruzain Triton
Cc1cccn2c(=O)c(C=O)c(N3CCC4(CC3)OCCO4)nc12	0%	4%	-12%	-1%	-15%	-11%[46.1 µM]	·	·
CC(C)c1cccc(C(C)C)c1NC(=O)c1ccccc1	·	-29%[46.1 µM]	-16%	-1%	1%	-6%[46.1 µM]	·	·
O=S(=O)(N1CCOCC1)N1CCN(c2ccc(F)cc2)CC1	1%	1%	·	4%	3%	1%	13%	1.3%
CNCCCOc1cccc(Oc2ccccc2)c1	2%	16%	-11%	1%	13%	?	·	·
CC(C)Cn1c(SCC(=O)N(C)C2CCS(=O)(=O)C2)nc2cc(Cl)ccc2c1=O (stereo not given)	·	-21%	-25%	2%	0%	14%	·	·
O=C(c1cccnc1)N(c1cc2sc(=O)oc2c2ccccc12)S(=O)(=O)c1ccccc1	26%	1%	-10%	-16%	-16%	?	16%	-18%
Clc1ccccc1-c1nc(Nc2ccccc2)nc2ccc(Br)cc12	·	8%[46.1 µM]	-22%	·	·	·	25µM*	-1.2%
CC(NC(=S)Nc1ccccc1C(F)(F)F)C1CC2CCC1C2 (stereo not given)	2%	-17%	-6%	0%	4%	?	·	·
CCOc1ccc2[nH]c(=O)c(CN(CCO)C(=O)c3ccc(OC)c(OC)c3)cc2c1	-2%	-20%	-5%	-1%	-13%	-6%	-3%	3.5%
O=C(Nc1nc(-c2ccc(Cl)cc2)cs1)C1CCCO1 (stereo not given)	·	-2%	21%	0%	22µM*	1%[46.1 µM]	·	·
CC1([N+](=O)[O-])COC(c2cccc3ccccc23)OC1 (stereo not given)	·	2%	6%	·	-3%	?	·	·
O=C1NCCN(C(=O)CCc2nnc(-c3ccsc3)o2)C1c1ccc(F)cc1 (stereo not given)	-6%	11%	-4%	1%	1%	3%	·	·

molecule	NS1 function inh	LASV entry inh	2A StopGo	SARS PLpro yeast	RE007 growth inh	Marburg entry inh	Cruzain inh noDet	Cruzain Triton
COc1ccc(CCNCC(=O)Nc2ccccc2C(F)(F)F)cc1	·	19%	-19%	-1%	-6%	-4%[46.1 µM]	·	·
Cc1ccc(CN2[C@@H]3c4ccccc4C[C@@H]3OCCS2(=O)=O)cc1	-17%	·	-5%	-7%	-4%	·	·	·
CC(C)CC(=O)NC(NC(=O)CC(C)C)c1cccc([N+](=O)[O-])c1	1%	-17%	5%	1%	-1%	?	·	·
COc1ccc(-c2c(C(C)=O)c(C)nc3sc4c(=O)[nH]nnc4c23)cc1	17%	3%	-20%	11%	7%	?	-2%	-2.4%
Cc1ccccc1CSCC(=O)NC(=O)NCc1ccco1	-4%	-38%	3%	-4%	11%	-7%	-8%	-12%
COC(=O)C1CN(C(=O)COc2ccc(Cl)cc2C)c2ccccc2O1 (stereo not given)	-1%	19%[46.1 µM]	3%	-8%	1%	15%[46.1 µM]	·	·
O=C(CSc1c[nH]c2ccccc12)N1CCCc2ccccc21	-17%	·	-12%	-7%	-13%	·	5%	-8.3%
Cc1ccc(S(=O)(=O)N(C)C)cc1NC(=S)NCc1ccco1	·	-4%	5%	1%	-6%	-12%	·	·
COc1cc(/C=C2\COC/C(=C\c3cc(OC)c(OC)c(OC)c3)C2=O)cc(OC)c1OC	0%	?	3.5µM*	1%	9%	?	·	·
CCN(CC(=O)NC)S(=O)(=O)c1ccc(Br)cc1	14%	0%	-12%	5%	-21%	12%	7%	4.2%
CS(=O)(=O)N1CCN(C(=O)c2cc3ccccc3oc2=O)CC1	0%	1%	21%	4%	-7%	21%	-10%	3.6%
COc1cc(CC(=O)Nc2ccc(S(=O)(=O)N(C)C)cc2)cc(OC)c1OC	0%	-4%	-25%	2%	18%	9%	3%	-1.0%

molecule	NS1 function inh	LASV entry inh	2A StopGo	SARS PLpro yeast	RE007 growth inh	Marburg entry inh	Cruzain inh noDet	Cruzain Triton
CSc1nnc(C)c(/C=C/Nc2ccc(C)cc2)n1	-18%	4%	?	-9%	-17%	-14%[46.1 µM]	?	-7.7%
COC(=O)N/N=C(C)\C=C\c1ccco1	11%	16%	43%[activator]	4%	5%	9%	1%	-4.6%
CCOC(=O)N1CCN(C(=S)NC(=O)C2CCCC2)CC1	8%	·	-2%	-1%	-7%	·	·	·
Cc1ccc(N2C(S)=C(C#N)C(=O)NC2c2cccs2)cc1 (stereo not given)	?	5%	0%	-2%	5%	-39%	-20%	-16%
CCC(C(=O)Nc1cc(Cl)ccc1OC)c1ccccc1 (stereo not given)	-26%	-16%	-11%	-47%	14%	-22%	4%	-4.6%
CCC/C(O)=C1\C(=O)CCCC1=NCCc1ccc(OCC)c(OCC)c1	·	-15%	-6%	-1%	0%	-26%[46.1 µM]	·	·
CC(=O)NCCn1c(SCc2cc(=O)n3cc(Cl)ccc3n2)nc2ccccc2c1=O	-15%	-19%	-19%	-4%	0%	13%	?	-8.7%
C=CCn1c(C(CCCC)CC(O)COCCC)n[nH]c1=S (stereo not given)	3%	·	-21%	0%	5%	·	·	·
O=C(Cn1ncc2c(=O)oc3ccccc3c21)N1CCN(C(=O)c2ccco2)CC1	-14%	23%	-2%	-1%	7%	23%	-8%	-0.6%
CC(OC(=O)CC1Sc2ccccc2NC1=O)C(=O)NC1CCCC1 (stereo not given)	13%	5%	10%	-13%	-4%	13%[46.1 µM]	·	·
Cc1csc2nc(COc3cccc(NC(=O)c4ccccc4F)c3)cc(=O)n12	·	3%[46.1 µM]	-2%	·	·	4%[46.1 µM]	-9%	-1.4%
CCCC(C)n1[nH]c(=O)c2c(C)cc(C)nc21 (stereo not given)	5%	10%	0%	6%	3%	-2%[46.1 µM]	13%	-1.5%

molecule	NS1 function inh	LASV entry inh	2A StopGo	SARS PLpro yeast	RE007 growth inh	Marburg entry inh	Cruzain inh noDet	Cruzain Triton
CCc1ccc(N(CC(=O)N2CCN(Cc3ccccc3)CC2)S(C)(=O)=O)cc1	2%	·	-28%	5%	15%	·	·	·
O=C1NC(Nc2nccs2)(C(F)(F)F)C(=O)N1CCc1ccccc1 (stereo not given)	-9%	-1%	-23%	-4%	?	23%	4%	-3.3%
O=C(CCNC(=O)c1ccccc1Cl)Nc1cc(C(F)(F)F)ccc1N1CCCC1	-7%	-28%	?	-8%	-5%	?	·	·
CCOc1ccc(S(=O)(=O)N2CCN(C(=O)C3CCC3)CC2)cc1	·	-15%	-22%	1%	7%	-26%	·	·
Cc1cccc2cc(CN(CCCO)C(=O)Nc3ccccc3Cl)c(=O)[nH]c12	-4%	-20%	?	0%	3%	-4%	5%	-3.3%
COc1ccc(S(=O)(=O)N2Cc3ccccc3CC2C(=O)Nc2nccs2)cc1 (stereo not given)	2%	?	45%[activator]	-3%	-8%	?	2%	-3.0%
O=c1c2ccccc2sn1-c1cc(S(=O)(=O)N2CCOCC2)ccc1N1CCCC1	?	-14%	14%	-2%	6%	2%&2%	1%	-13%
COc1ccc(C2(CNC(=O)c3ccc(C)cc3)CCOCC2)cc1	3%	-6%	6%	0%	-9%	24%[46.1 µM]	·	·
Cc1cc(N2CCCC2)ccc1/C=C1/C(=O)N(C)C(=S)N1C	3%	-24%[46.1 µM]	-2%	0%	1%	?	·	·
COc1ccc(/C=C(\C#N)C(=O)Nc2cccnc2)cc1	4%	0%	7%	-11%	5%	?	-6%	-1.9%
Cc1cc(=O)n2nc(N3CCCC(C(=O)NC4CCC(C)CC4)C3)sc2n1 (stereo not given)	12%	19%[46.1 µM]	3%	-2%	-3%	-1%[46.1 µM]	·	·
Cc1cc(C)cc(-n2ccn(CC(=O)Nc3ccccc3F)c(=O)c2=O)c1	·	8%[46.1 µM]	-9%	·	·	·	0%	-7.2%

Molecules listed so far that contain an aryl thioether with sulfur outside any ring:
molecule	NS1 function inh	LASV entry inh	2A StopGo	SARS PLpro yeast	RE007 growth inh	Marburg entry inh	Cruzain inh noDet	Cruzain Triton
CC(C)Cn1c(SCC(=O)N(C)C2CCS(=O)(=O)C2)nc2cc(Cl)ccc2c1=O (stereo not given)	·	-21%	-25%	2%	0%	14%	·	·
O=C(CSc1c[nH]c2ccccc12)N1CCCc2ccccc21	-17%	·	-12%	-7%	-13%	·	5%	-8.3%
CSc1nnc(C)c(/C=C/Nc2ccc(C)cc2)n1	-18%	4%	?	-9%	-17%	-14%[46.1 µM]	?	-7.7%
CC(=O)NCCn1c(SCc2cc(=O)n3cc(Cl)ccc3n2)nc2ccccc2c1=O	-15%	-19%	-19%	-4%	0%	13%	?	-8.7%

Going on with the list:
molecule	NS1 function inh	LASV entry inh	2A StopGo	SARS PLpro yeast	RE007 growth inh	Marburg entry inh	Cruzain inh noDet	Cruzain Triton
Clc1ccc2noc(-c3ccccc3)c2c1	4%	1%	·	-5%	8%	2%	-8%	-1.0%
CC(C)COC(=O)c1cccc2c1-c1ccccc1/C2=N\O	-10%	?	-11%	-63%	?	?	0%	-16%
CN(C)C(=O)c1snnc1-c1ccccc1	1%	-5%	-12%	17%	15%	?	6%	4.3%
c1cc2c(cc1[C@H]1OC[C@H]3[C@@H]1CO[C@@H]3c1ccc3c(c1)OCO3)OCO2	-8%	·	-24%	-10%	1%	·	·	·
COc1ccc(-n2c(C)nc3cc(C(=O)N4CCOCC4)ccc32)cc1	2%	?	21%	1%	-1%	?	7%	3.0%
O=C(CSc1nc2nn(-c3ccccc3)c(=O)c-2c2n1CCCCC2)Nc1ccc(OC(F)F)cc1	·	?	-13%	-3%	-23%	?	·	·
O=C(CSC1CC(=O)N(CCc2ccccc2)C1=O)Nc1ccc(Br)cc1 (stereo not given)	7%	-1%	18%	-15%	-3%	?	-2%	3.0%

Two entries from above, with values under each structure:
Value order: NS1 function inh, LASV entry inh, 2A StopGo, SARS PLpro yeast, RE007 growth inh, Marburg entry inh, Cruzain inh noDet, Cruzain Triton
> c1cc2c(cc1[C@H]1OC[C@H]3[C@@H]1CO[C@@H]3c1ccc3c(c1)OCO3)OCO2
    -8%, ·, -24%, -10%, 1%, ·, ·, ·
> COc1ccc(-n2c(C)nc3cc(C(=O)N4CCOCC4)ccc32)cc1
    2%, ?, 21%, 1%, -1%, ?, 7%, 3.0%

From PubChem BioAssay
